CtBP-E1A inh – blocks the CtBP interaction with E1A | AlphaScreen GST-E1A/His-CtBP binding, 1536-well; active compounds read low; control for the full effect not named in the record | 0.49% of 340,000 active | activity change, % (no concentration beside the values); in the data active means activity change below about -65%; inconclusive means about -30% to -65%; inactive means above about -30%; note: % is set by controls: 0 for no effect and ±100 for the full control effect
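Homogeneous bead-based format: GST-tagged E1A captured on glutathione donor beads, His-tagged CtBP on nickel acceptor beads; compounds precede bead addition by 2 h at 37 °C.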
PINK1 modulator – modulators of PINK1 expression | PINK1 immunofluorescence, high-content cytometry, 24 h | Potency, µM (highest dose often 76.6 µM), inactives show at the highest dose activation (PINK1 increase), most hits filed as activators | 0.2% of 410,000 active | AID 624263; active = well fitted activation curve with a large enough effect; inconclusive = small, poorly fitted or top-dose-only effect; inactive = flat fitted curve, though single readings scatter; cell line not stated here;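 note: potency is the fitted concentration of half-maximal effect; % of control where 0% means no effect; nearly all actives have a fitted effect of over 65% in size; a mitochondrial uncoupler was the plate control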
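Measures PINK1 amount and localization on or inside mitochondria by immunofluorescence. Stable cells get compounds at 5 concentrations for 24 hours before fixation and staining; CCCP controls included.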
Six1-Eya2 blk – inhibitors of human Six1/Eya2 interaction. Q15475+O00167. AlphaScreen GST-Six1/His-Eya2 binding, biochemical; active compounds read low; control for the full effect not named in the record. activity change, % (concentration not given with the values). 0.56% of 360,000 active; in the data active = activity change below about -65%; inconclusive = about -30% to -65%; inactive = above about -30%; note: % is set by controls: 0 for no effect and ±100 for the full control effect
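Homogeneous AlphaScreen proximity assay pairing GST-Six1 with His-tagged Eya2 (added as 5X mix: 250 nM and 500 nM) in 50 mM Tris pH 8.0, 300 mM NaCl, 1 mM TCEP. Glutathione donor and nickel acceptor beads; 1 h, 37 °C, dark.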
TRPML1 ag – human mucolipin-1 channel agonism. Q9GZU1. TRPML1-expressing cells, Ca2+ dye fluorescence, FDSS; host cell line not named in the record; reference of the full effect not given here. activation, % (test concentration not listed). 0.12% of 410,000 active. AID 624414; in the data active = activation above about 50%; inconclusive = about 30% to 50%; inactive = below about 30%; note: 0% is about no effect; the text of the record puts the active cut at 80%
Target sequence (Q9GZU1 whole entry, looked up): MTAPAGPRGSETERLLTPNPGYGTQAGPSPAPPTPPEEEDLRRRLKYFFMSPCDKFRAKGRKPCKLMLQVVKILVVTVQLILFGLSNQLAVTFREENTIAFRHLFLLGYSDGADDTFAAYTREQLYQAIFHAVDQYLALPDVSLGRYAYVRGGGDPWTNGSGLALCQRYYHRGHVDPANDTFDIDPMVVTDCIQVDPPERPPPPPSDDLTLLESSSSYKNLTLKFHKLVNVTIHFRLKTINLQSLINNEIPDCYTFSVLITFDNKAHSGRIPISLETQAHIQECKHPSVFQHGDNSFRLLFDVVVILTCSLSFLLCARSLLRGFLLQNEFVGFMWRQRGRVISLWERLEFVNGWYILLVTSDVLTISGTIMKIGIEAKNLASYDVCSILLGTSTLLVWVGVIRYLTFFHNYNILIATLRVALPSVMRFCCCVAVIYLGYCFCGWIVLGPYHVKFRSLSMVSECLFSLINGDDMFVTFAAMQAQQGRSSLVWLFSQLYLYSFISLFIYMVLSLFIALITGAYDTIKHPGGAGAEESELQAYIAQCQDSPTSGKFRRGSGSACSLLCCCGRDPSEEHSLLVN
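Kinetic FDSS Ca2+ read in Tet-induced TRPML1-DL cells (ABD Ca8 dye plus quencher, 45-90 min RT loading): baseline, then compound, then 110 s agonist window; EC80 agonist 54-4 at 4uM final added afterwards for a 110 s antagonist window.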
D2 potentiator – potentiates the human D2 dopamine receptor allosterically; P14416; DiscoveRx D2 beta-arrestin cells, luminescence, 90 min; 100% = 57 uM dopamine signal; potentiation, % (concentration not given with the values); 0.23% of 360,000 active; active = potentiation of 50% or more; inconclusive = 30% to 50%; inactive = 30% or less;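 note: compound concentration not given in the record; tested on top of an EC20 dose of dopamine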
Target sequence (P14416 whole entry, looked up): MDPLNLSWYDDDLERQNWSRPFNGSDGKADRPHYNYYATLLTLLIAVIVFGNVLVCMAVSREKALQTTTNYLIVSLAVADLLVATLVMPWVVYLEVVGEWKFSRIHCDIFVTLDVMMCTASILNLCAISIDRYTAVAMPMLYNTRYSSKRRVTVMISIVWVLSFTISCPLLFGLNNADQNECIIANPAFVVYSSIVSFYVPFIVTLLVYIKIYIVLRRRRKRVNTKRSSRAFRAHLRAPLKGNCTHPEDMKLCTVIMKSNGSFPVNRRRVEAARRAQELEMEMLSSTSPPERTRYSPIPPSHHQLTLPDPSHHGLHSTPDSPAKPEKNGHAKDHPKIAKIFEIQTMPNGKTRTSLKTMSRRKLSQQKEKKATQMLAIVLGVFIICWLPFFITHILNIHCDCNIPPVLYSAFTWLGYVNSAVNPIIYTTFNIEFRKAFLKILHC
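PathHunter D2 cells, attached overnight at 37 deg C, received compound in DMSO plus dopamine at EC20 (50 nM final) for 90 min at 37 deg C. Beta-arrestin recruitment was read as luminescence after 1 h with detection reagent at ambient temperature.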
D2 agonist – agonists of human D2 dopamine receptor (beta-arrestin). activation, % (test concentration not listed). DiscoveRx PathHunter D2 beta-arrestin, luminescence, 90 min; 100% = 57 uM dopamine signal. 0.084% of 360,000 active. P14416; in the data active = activation above about 40%; inconclusive = about 15% to 40%; inactive = below about 15%; note: compound concentration not given in the record; the text of the record calls up to 30% inactive
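DiscoveRx PathHunter D2 beta-arrestin cells (2,100/well) attached overnight, then compound-stimulated 90 min at 37 C in HBSS/10 mM HEPES/0.1% Tween-20 buffer; beta-galactosidase complementation read by luminescence after 1 h at ambient temperature. Dopamine 57 uM final (EC100) as control.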
Starred values were filed as active, the others as inactive; ? = inconclusive; / = no result given; & = joins results of further samples; [ ] = another dose, or the depositor's remark.

molecule	D2 agonist	PINK1 modulator	Six1-Eya2 blk	TRPML1 ag	CtBP-E1A inh	D2 potentiator
Cc1c(NC(=O)c2ccccc2N(C)S(=O)(=O)c2ccccc2)c(=O)n(-c2ccccc2)n1C	-3.0	0.0%	4	-0.4	5	-4
COc1ccccc1NC(=O)Nc1cnccn1	-3.2	-1.7%	0	-0.5	-6	-8
O=C(NNC(=S)Nc1ccc(C(=O)O)c(O)c1)c1ccncc1	7.7	3.5%	4	-0.8	0	-9
COc1ccc(CNC(=S)Nc2cc(C)cc(C)c2)cc1	-3.3	-0.5%	-7	3.2	-6	-16
COc1ccc(CCNC(=O)CC2COc3ccccc3O2)cc1OC (configuration not stated)	-3.2	1.7%	-1	-1.1	5	9
CCN(CC(=O)Nc1c(F)cccc1F)C(=O)CSc1ccc(F)cc1	2.7	1.9%	3	-0.7	5	-3
Cc1ccc(N2CC(C(=O)NCc3ccccn3)CC2=O)cc1 (configuration not stated)	-2.0	/	0	-0.4	7	-12
COc1ccc(CNC(=O)C2CCC(CNS(=O)(=O)c3ccccc3)CC2)cc1 (configuration not stated)	-2.0	1.1%	-2	1.2	-21	-5
COC(=O)c1ccc(Nc2c([N+](=O)[O-])ccc3nonc23)cc1	1.6	14µM*	-6	0.9	7	18
O=C(O)CN1C(=O)/C(=C\c2cn(-c3ccccc3)nc2-c2ccccc2)SC1=S	-4.7	0.5%	11	-0.2	-10	-4
COc1ccc2c(-c3ccccc3)cc(=S)[nH]c2c1	-0.4	9.7%	-10	-1.2	-7	-11
CC(=Cc1ccccc1)C=C1SC(=S)N(CCCC(=O)Nc2ccc(C(=O)O)cc2)C1=O	-4.3	?	-6	-0.2	-5	-9

Arranged by the number under D2 agonist (falling): 7 of the compounds above
SMILES | D2 agonist | PINK1 modulator | Six1-Eya2 blk | CtBP-E1A inh | D2 potentiator
O=C(NNC(=S)Nc1ccc(C(=O)O)c(O)c1)c1ccncc1 | 7.7 | 3.5% | 4 | 0 | -9
COc1ccc2c(-c3ccccc3)cc(=S)[nH]c2c1 | -0.4 | 9.7% | -10 | -7 | -11
COc1ccc(CNC(=O)C2CCC(CNS(=O)(=O)c3ccccc3)CC2)cc1 (configuration not stated) | -2.0 | 1.1% | -2 | -21 | -5
Cc1c(NC(=O)c2ccccc2N(C)S(=O)(=O)c2ccccc2)c(=O)n(-c2ccccc2)n1C | -3.0 | 0.0% | 4 | 5 | -4
COc1ccccc1NC(=O)Nc1cnccn1 | -3.2 | -1.7% | 0 | -6 | -8
COc1ccc(CNC(=S)Nc2cc(C)cc(C)c2)cc1 | -3.3 | -0.5% | -7 | -6 | -16
O=C(O)CN1C(=O)/C(=C\c2cn(-c3ccccc3)nc2-c2ccccc2)SC1=S | -4.7 | 0.5% | 11 | -10 | -4

Later entries
molecule	D2 agonist	PINK1 modulator	Six1-Eya2 blk	TRPML1 ag	CtBP-E1A inh	D2 potentiator
COc1cccc(NC(=O)CN(C)C(=O)c2ccc(COc3ccccc3)o2)c1	-1.7	1.3%	-8	-1.9	/	-21
Cc1ccc(/C=C/C(=O)NCCc2ccccc2)o1	-1.3	-1.1%	-3	0.2	-19	-4
Cc1ccc(S(=O)(=O)N(C(=O)c2ccco2)c2cc3sc(=O)oc3c3ccccc23)cc1	?	-1.3%	-28	2.8	?	63*
O=c1[nH]c(=O)n(C2CCCCCC2)c(O)c1C=NCc1ccc(F)cc1	-2.2	0.0%	-6	-0.1	-1	-5
CN(Cc1ccccc1)C(=O)COC(=O)c1ccc[nH]c1=O	-3.3	0.4%	32	-0.1	-13	-1
COc1ccc(-c2cc3cc(OC)c(OC)cc3cn2)cc1OC	-2.4	0.0%	-17	0.2	-18	4
O=C(NCc1csc(-c2cccs2)n1)Nc1ccc(F)cc1F	-1.6	1.6%	-1	-0.4	/	-30
COc1ccc(C2(c3ccc(OC)cc3)NC(=O)N(CC(=O)Nc3ccccc3C)C2=O)cc1	-11	1.9%	-12	1.7	-11	-12
O=Cc1cccc2ccc3cccc(C(=O)O)c3c12	6.2	-0.3%	0	0.7	4	-1
COc1ccc(C(=O)CCC(=O)Nc2ccc(Cl)cc2)cc1	-2.3	1.2%	1	0.1	10	-2
COc1ccc(OCCSc2nc(C)nc3ccccc23)cc1	0.2	1.3%	5	4.3	-11	-3
CC(NCc1ccccc1Cl)C(=O)Nc1ccc(S(=O)(=O)N2CCCC2)cc1 (configuration not stated)	-1.0	3.6%	-2	0.5	9	-1

Only TRPML1 ag, D2 agonist and Six1-Eya2 blk, for some of the entries so far:
canonical_smiles | TRPML1 ag | D2 agonist | Six1-Eya2 blk
COc1ccc(-c2cc3cc(OC)c(OC)cc3cn2)cc1OC | 0.2 | -2.4 | -17
O=C(NCc1csc(-c2cccs2)n1)Nc1ccc(F)cc1F | -0.4 | -1.6 | -1

(next part)
molecule	D2 agonist	PINK1 modulator	Six1-Eya2 blk	TRPML1 ag	CtBP-E1A inh	D2 potentiator
COc1ccc(-c2csc(NC(=O)c3ccc(N4C(=O)CCC4=O)cc3)n2)cc1OC	3.2	5.6%	4	-0.1	-11	4
O=C(/C=C/c1ccccc1)NNC1=NS(=O)(=O)c2ccccc21	-9.0	3.0%	-2	0.6	/	-8
CCOC(=O)/C(C#N)=C\c1ccc2c(c1)OCO2	-1.3	0.7%	1	1.2	-1	-3
Cc1cccc(/C(N)=N/OC(=O)Cc2ccccc2)c1	2.0	2.9%	51	4.7	69	-8
Cc1ccc(C)c(-c2csc(-c3cccnc3)n2)c1	-3.4	2.0%	6	1.4	21	-2
Nc1nonc1C(=O)N/N=C/c1ccc(-c2cccc([N+](=O)[O-])c2)o1	-3.9	0.4%	-11	-0.5	?	-3
O=C(NCCN1C(=O)S/C(=C\c2cccnc2)C1=O)c1ccc(S(=O)(=O)N2CCCC2)cc1	-4.2	-0.6%	-7	1.1	-9	8
CC1CCCCN1CCCNC(=O)CN1C(=O)c2cccnc2Oc2ccc(Cl)cc21 (configuration not stated)	-7.2	-0.8%&0.7%	0	-0.8&1.0	0	-28
CN(C)c1ccc(C=C2C=CC=C2)cc1	-2.3	3.5%&1.4%	-66*	-0.1&0.0	-27	-12
O=C(NCCO)Nc1ccc(Cl)cc1	-3.0	0.3%	-6	-0.5	-5	-1
CCCCn1c(N)c(N(CCC(C)C)C(=O)c2ccc([N+](=O)[O-])s2)c(=O)[nH]c1=O	-0.6	-0.1%	1	2.0	-27	-1
CC(C)C[C@@H](CO)NC(=O)CC[C@H](NC(=O)OC(C)(C)C)C(=O)N(Cc1ccccc1)Cc1ccccc1	-2.9	1.1%	3	-0.4	8	-7

(list continues)
molecule	D2 agonist	PINK1 modulator	Six1-Eya2 blk	TRPML1 ag	CtBP-E1A inh	D2 potentiator
O=C(NCC1CCCO1)c1cccc(N2C(=O)C3C4C=CC(C4)C3C2=O)c1 (configuration not stated)	-1.1	-0.6%	2	-0.4	4	2
Cc1noc(C)c1CSCC(=O)Nc1nc(-c2ccc(F)c(F)c2)cs1	1.6	24%	1	2.5	-12	11
O=C(/C=C/c1ccc(S(=O)(=O)N2CCOCC2)cc1)NCCc1ccc(C(F)(F)F)cc1	4.4	3.7%	7	1.5	0	1
CC(C)(C)OC(=O)N[C@@H](CC(=O)OCc1ccccc1)C(=O)O	-2.6	0.4%	8	-0.2	6	-12
COc1ccc(CCNC(=O)COC(=O)CCC(=O)c2cccs2)cc1OC	1.5	0.4%	6	-0.1	3	-6
CC(NC(=O)COC(=O)C1CCN(c2ccc(C(F)(F)F)cn2)CC1)c1ccc(Br)cc1 (configuration not stated)	-2.4	-0.8%	10	4.0	0	-14
CCN=C1S/C(=C\c2cc(OCC)c(O)cc2Br)C(=O)N1CC	-3.1	3.3%	0	3.3	11	-14
COCc1c(C(=O)N2CCN(c3ccccc3C)CC2)oc2ccccc12	-0.5	3.1%	0	2.8	6	-6
C/C(=N/NC(=O)CNC(=O)c1cccnc1)c1cccc([N+](=O)[O-])c1	-0.7	-0.9%	5	2.2	16	-11
CN(CCO)c1cc(NCCCN2CCC(Cc3ccccc3)CC2)c2nonc2c1[N+](=O)[O-]	-3.1	-1.2%	1	-1.0	1	-28
CC(C)CCC(CCN1CCOCC1)c1ccc2c(c1)OCO2 (configuration not stated)	-0.4	20%[38.3 µM]	-12	-0.5	-16	-14
Cc1cccc(/C=N/Nc2ccc3ccccc3n2)c1	-4.6	8.8%	3	3.2	/	-8

Carrying on.
molecule	D2 agonist	PINK1 modulator	Six1-Eya2 blk	TRPML1 ag	CtBP-E1A inh	D2 potentiator
CN1OC[C@@H]2CN(C(=O)Nc3ccccc3)[C@H](c3ccc(N4CCCCC4)cc3)C[C@@H]21	-2.9	0.0%	-10	-0.5	-8	-5
COC(=O)CCCC1=CC2=C(c3ccccc3)C(=O)C(C)(OC(=O)C3CCCC3)C(=O)C2=CN1CCN1CCOCC1 (configuration not stated)	-3.5	0.9%	-1	0.0	0	-9
NC1=NC(c2ccc([N+](=O)[O-])cc2)N(c2ccc(F)cc2)C(N)=N1 (configuration not stated)	-3.3	1.7%	9	-1.1	3	0
CC1(C)Cc2c(cnn2-c2ccccc2)C(NC(=O)CCCN2CCCC2=O)C1 (configuration not stated)	0.5	-0.4%	3	1.3	-4	-15
CC(Oc1ccccc1)C(=O)N1CCc2ccccc2C1 (configuration not stated)	-3.6	-0.5%	1	0.9	10	-3
COC(=O)CN1C(=O)[C@H]2[C@@H](c3ccc(C)o3)N3C(=O)CN(Cc4ccccc4)C(=O)[C@@]3(Cc3ccccc3)[C@H]2C1=O	-3.9	0.2%	-6	0.4	0	-12
CC(=O)Nc1ccnc(-c2cccnc2)n1	-2.3	1.6%[38.3 µM]	0	-0.1	3	-10
O=[N+]([O-])c1ccccc1CN1CCN(S(=O)(=O)c2ccccc2)CC1	0.7	2.9%	1	0.3	6	1
CCOc1c(C)cnc2c1c(=O)n(CC(=O)NCC1CCCO1)c(=O)n2C (configuration not stated)	7.0	1.5%	0	0.4	5	-23
Cc1ccc(SCc2[nH]nc3c2C(C(C)C)C(C#N)=C(N)O3)cc1 (configuration not stated)	1.0	-0.7%	0	-0.6	0	-9
COCCN(C(=O)c1sc2ccccc2c1Cl)c1c(N)n(CC(C)C)c(=O)[nH]c1=O	-2.6	0.2%	13	-0.7	/	-7
CCOc1ccc2nc(Cl)c(C3CC(c4ccco4)=NN3S(=O)(=O)c3ccccc3)cc2c1 (configuration not stated)	-4.6	8.7%	-9	1.0	-2	-14

Next compounds:
molecule	D2 agonist	PINK1 modulator	Six1-Eya2 blk	TRPML1 ag	CtBP-E1A inh	D2 potentiator
COc1cccc(C2c3c(oc4ccc(F)cc4c3=O)C(=O)N2CCN2CCOCC2)c1OC (configuration not stated)	-8.6	0.8%	-1	0.1	-1	-12
O=C(O)c1cc(-c2ccccc2)nc2ccccc12	-7.3	0.4%	5	-0.5	-8	-4
Cc1ccsc1/C=N/NC(=O)c1ccccn1	-9.3	1.2%	-26	-0.7	-3	-2
Cc1ccc2nc(NC3=NCN(Cc4cccnc4)CN3)nc(C)c2c1	-2.6	-1.8%[38.3 µM]	0	0.0	12	-7
COc1ccc(C(CC(=O)O)NC(=O)COc2ccccc2OC)cc1OC (configuration not stated)	1.6	0.1%	12	-0.3	2	-8
CCOc1cccc(C2/C(=C(/O)c3ccc4c(c3)CC(C)O4)C(=O)C(=O)N2Cc2ccncc2)c1 (configuration not stated)	0.7	0.7%	4	-0.5	1	-11
CC(=O)NC(=S)Nc1ccc(S(=O)(=O)Nc2nc(C)cc(C)n2)cc1	2.9	1.2%	-3	5.3	/	-4
